Mtb growth: M. tuberculosis H37Rv growth inhibitors, H37Rv strain (AID 1626); M. tuberculosis H37Rv growth inhibition; higher % means a stronger effect; one-dose inhibition, % at 10 µM; IC50 in µM for titrated hits; 0.95% of 220,000 active;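 active means confirmed in a dose series; inconclusive means inhibition above 80% but not taken into the dose series; inactive means below 80% or under 30% at every dose of the series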;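 further: bacteria incubated seven days before Alamar blue readout; 0% = bacteria only wells and 100% = bacteria with antibiotic wells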
Mtb betalactam: beta-lactam sensitization of Mtb H37Rv, H37Rv. M. tuberculosis H37Rv growth with meropenem, percent inhibition; hits of this screen are not shown here. inhibition, % at 25 µM. 0.27% of 330,000 active;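 active means about 74% or more and at least 40 points above the plate without the antibiotic, then above 30% in a dose series; inconclusive means first-round hits that could not be retested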;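 further: growth measured after seven days incubation then overnight dye step; 0% = bacteria only wells and 100% = bacteria with antibiotic; twin plates without the antibiotic show which effects depend on it; some results filed as inactive read as strong as hits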
RecA splice inh: Mtb RecA intein splicing inhibitors, primary screen, biochemical, fluorescence, HTS; Protein RecA (Mycobacterium tuberculosis (strain ATCC 25618 / H37Rv)), P9WHJ3; cell-free RecA intein splicing; inhibition, %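 (about 9 µM by stock and volumes)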; 0.75% of 290,000 active; AID 2221, 2009; in the data active means inhibition above about 30%; inconclusive means no clear call, values can overlap the other calls;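 further: 0% = vehicle wells and 100% = reference inhibitor control wells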
Target sequence (P9WHJ3 whole entry, looked up, canonical isoform): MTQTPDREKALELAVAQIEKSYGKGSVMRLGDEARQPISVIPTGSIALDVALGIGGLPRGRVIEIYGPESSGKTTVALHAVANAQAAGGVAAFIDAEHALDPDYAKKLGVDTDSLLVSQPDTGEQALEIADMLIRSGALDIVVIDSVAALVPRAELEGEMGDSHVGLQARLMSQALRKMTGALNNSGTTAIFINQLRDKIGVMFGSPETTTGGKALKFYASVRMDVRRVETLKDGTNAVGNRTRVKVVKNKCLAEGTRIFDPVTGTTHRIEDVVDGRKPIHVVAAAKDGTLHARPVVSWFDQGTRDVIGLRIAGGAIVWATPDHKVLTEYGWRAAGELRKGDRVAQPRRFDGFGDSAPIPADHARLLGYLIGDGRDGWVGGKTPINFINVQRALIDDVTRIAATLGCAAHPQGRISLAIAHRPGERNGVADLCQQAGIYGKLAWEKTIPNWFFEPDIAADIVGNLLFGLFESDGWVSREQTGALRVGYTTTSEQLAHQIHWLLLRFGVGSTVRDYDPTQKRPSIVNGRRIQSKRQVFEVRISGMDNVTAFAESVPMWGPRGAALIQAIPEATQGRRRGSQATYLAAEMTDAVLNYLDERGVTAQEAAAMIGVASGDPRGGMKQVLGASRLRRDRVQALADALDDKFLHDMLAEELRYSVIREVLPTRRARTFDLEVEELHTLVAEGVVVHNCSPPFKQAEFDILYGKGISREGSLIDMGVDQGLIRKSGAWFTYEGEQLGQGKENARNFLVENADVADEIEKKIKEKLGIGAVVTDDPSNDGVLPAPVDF
Arbovirus anti: antivirals against arbovirus infection, primary screen, cell-based, full library, 10K replicate subset | arbovirus infection cell-based antiviral screen | inhibition, % at 10 µM | 0.37% of 200,000 active | AID 1251, 2008;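 active means inhibition from about 30%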;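 further: bluetongue infection of BSR cells; cell survival read as ATP light after 72 h; 0% = infected wells without compound and 100% = uninfected wells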
YopH PTP inh: YopH tyrosine phosphatase inhibitors, primary screen, biochemical, fluorescence Ex485/Em525; YopH tyrosine phosphatase [Yersinia enterocolitica]; inhibition, %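 (about 10 µM by stock and volumes)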; 0.16% of 140,000 active;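 active means inhibition of 50% or more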;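 further: controls were vehicle for no effect and minimum signal wells for full effect; inactives centre near -20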
Numbers without * were called inactive; u = inconclusive; x = no result given. Some of the compounds tested, so the mix of outcomes need not match the whole.

Each structure is followed by: Mtb growth | Mtb betalactam | RecA splice inh | Arbovirus anti | YopH PTP inh
> NC(=O)C[C@@H]1N[C@]2(C(=O)Nc3ccccc32)[C@@H]2C(=O)N(C3CCCCC3)C(=O)[C@H]12
→ -7% | 4 | x | 3 | -35
> CCCC(=O)Nc1ccc(N2CCN(C(=O)c3ccccc3C)CC2)cc1
→ -6% | -13 | -0.7 | -3 | -4
> CSCC(=O)N1CCC(n2nccc2NC(=O)CCCc2ccccc2)CC1
→ x | -1 | -0.3 | x | x
> O=C1CSCC(=O)N1c1ccccc1
→ 4% | -7 | -0.4 | 6 | -1
> C=CCN(c1ccccc1)S(=O)(=O)c1ccc2c(c1)NC(=O)C(C)C(=O)N2 (stereo unspecified)
→ x | 1 | 0.4 | x | x
> O=C(CN1C(=O)COc2ccccc21)Nc1ccc2c(c1)OCCO2
→ 0% | 3 | x | 5 | -28
> O=C(Cc1ccccc1[N+](=O)[O-])NCc1ccccc1Cl
→ 2% | -4 | 1.9 | 14 | -36
> CCCCN(CC)C(=O)C1CCCN(S(=O)(=O)c2cccc3nsnc23)C1 (stereo unspecified)
→ x | -7 | -1.1 | x | x
> Cc1nn(C(=O)c2ccco2)c(C)c1Sc1ccc(Br)cc1
→ x | 6 | 0.2 | 3 | 3
> Cc1cccnc1NC(=O)c1cc2c(=O)oc3ccccc3c2s1
→ -6% | 8 | -1.8 | -10 | -35
> C/C(=N\NC(=O)C(c1ccccc1)c1ccccc1)c1ccc(O)cc1
→ x | 2 | 0.7 | x | x
> CCOC(=O)c1[nH]c2ccc(OC)cc2c1NC(=O)NC(C)C
→ -1% | 4 | -2.5 | 0 | -4
> Cc1nnc(SCc2ccccc2)n1N
→ x | -5 | 0.1 | 9 | -30
> O=C(Nc1ccc(Cc2ccncc2)cc1)c1cccs1
→ 10% | -7 | 0.8 | -1 | x
> COc1ccc(S(=O)(=O)N2CCC(C(=O)Nc3ccc(OC)c(OC)c3)CC2)cc1C
→ -1% | 1 | -1.5 | x | -21
> COc1ccccc1NC(=O)C1Cc2ccccc2CN1C(=O)c1ccco1 (stereo unspecified)
→ x | 3 | -0.8 | x | x
> CC/C(Cc1ccccc1)=N/NC(=O)c1cccc(Br)c1
→ -3% | -8 | 5.9 | -4 | 4
> COc1cc(/C=N/n2c(-c3cc(C)[nH]n3)n[nH]c2=S)cc(OC)c1OC
→ -6% | -6 | 10 | x | x
> COc1ccc(CN(C(=O)c2ccco2)c2ccccc2)cc1
→ -12% | -10 | 1.7 | -12 | -12
> O=C1[C@@H]2C(Cc3ccc(O)cc3)NC3(C(=O)Nc4ccc(F)cc43)[C@@H]2C(=O)N1c1ccccc1 (stereo partly specified)
→ -5% | 2 | -0.4 | 5 | -31

Some values from the results shown:
For Mtb betalactam, `NC(=O)C[C@@H]1N[C@]2(C(=O)Nc3ccccc32)[C@@H]2C(=O)N(C3CCCCC3)C(=O)[C@H]12` has the entry 4
For Mtb betalactam, `CSCC(=O)N1CCC(n2nccc2NC(=O)CCCc2ccccc2)CC1` has the entry -1
For Mtb betalactam, `COc1ccccc1NC(=O)C1Cc2ccccc2CN1C(=O)c1ccco1` (stereo unspecified) has the entry 3
For Mtb betalactam, `Cc1nn(C(=O)c2ccco2)c(C)c1Sc1ccc(Br)cc1` has the entry 6
For Mtb growth, `O=C(Cc1ccccc1[N+](=O)[O-])NCc1ccccc1Cl` has the entry 2%

Another view of part of the listing above.
SMILES: CC/C(Cc1ccccc1)=N/NC(=O)c1cccc(Br)c1
  Mtb growth: -3%	Mtb betalactam: -8	RecA splice inh: 5.9	Arbovirus anti: -4	YopH PTP inh: 4
SMILES: COc1cc(/C=N/n2c(-c3cc(C)[nH]n3)n[nH]c2=S)cc(OC)c1OC
  Mtb growth: -6%	Mtb betalactam: -6	RecA splice inh: 10	Arbovirus anti: x	YopH PTP inh: x

(listing goes on)
Each structure is followed by: Mtb growth | Mtb betalactam | RecA splice inh | Arbovirus anti | YopH PTP inh
> CCOCCCn1c(=S)[nH]c2cc(C(=O)NCc3ccc(F)cc3)ccc2c1=O
→ x | 2 | 0.6 | x | x
> Cc1ccc(N2CC(C(=O)NCCc3ccc(S(N)(=O)=O)cc3)CC2=O)cc1 (stereo unspecified)
→ -9% | 2 | 2.9 | 5 | -24
> COc1ccc(N2CCN(C3CCCCC3NS(=O)(=O)c3ccccc3)CC2)cc1 (stereo unspecified)
→ x | -10 | 2.6 | x | x
> O=C(CCCN1C(=O)C2CC=CCC2C1=O)Nc1cccc(F)c1 (stereo unspecified)
→ x | 8 | 17 | x | x
> CCC(C)N(C(=O)COC(=O)c1cc([N+](=O)[O-])ccc1N)C1CCS(=O)(=O)C1 (stereo unspecified)
→ x | -10 | 0.8 | x | x
> N#CCCN(C(=O)c1ccc2c(=O)n3c(nc2c1)CCCCC3)c1ccccc1
→ x | 4 | -0.8 | x | x
> CCC(C)NC(=O)c1ccc([N+](=O)[O-])c(Cl)c1 (stereo unspecified)
→ 3% | 1 | -4.4 | -2 | -18
> Cc1cc[n+](-c2[nH]c(=O)sc2/C=N/N=C(\[O-])c2ccccc2)cc1C
→ 0% | x | -4.5 | -2 | x
> O=C(N/C(=C\c1ccc(F)cc1)C(=O)N1CCCCCC1)c1ccccc1
→ 2% | 4 | 5.8 | 5 | x
> CCOC(=O)c1c(C)[nH]c(N=Nc2ccc(C)cc2C)c1C
→ 7% | 2 | 3.8 | -9 | -47
> CCc1ccccc1NC(=O)CCc1nc(-c2ccc(C)cc2)no1
→ -6% | -12 | x | -3 | 9
> COc1ccccc1NC(=O)c1cnc(SCC(=O)NCCc2ccccc2)n(C)c1=O
→ x | -4 | 0.1 | x | x
> Cc1ccc(N=Cc2cccc(O)c2O)c(C)c1
→ 90% | 84 | 15 | -43 | -56
> CC(=O)NCCn1c(SCC(=O)NCCc2ccc(S(N)(=O)=O)cc2)nc2ccccc2c1=O
→ 4% | -2 | -1.4 | 19 | x
> COc1ccc(NC(=O)c2ccc3c(c2)OCO3)cc1Cl
→ 0% | -6 | 1.0 | 4 | -47
> Cc1cccc(CSc2nnc(-c3ccco3)o2)c1
→ 8% | 0 | 2.5 | -16 | x
> C=CCn1c(-c2ccoc2)n[nH]c1=S
→ -4% | 0 | 1.6 | 7 | -44
> O=S1(=O)N=C(N(CCO)/N=C/c2ccccc2F)c2ccccc21
→ x | 2 | 0.1 | x | x
> C=CCNC(=O)/C(C#N)=C/c1cn(-c2ccccc2)nc1-c1ccc(OC)c([N+](=O)[O-])c1
→ -3% | 2 | -0.4 | -18 | -22
> CC(C)(C)C(=O)COC(=O)c1cccc(NC(=O)c2ccco2)c1
→ 1% | 85 | -1.3 | 3 | -47

Of the compounds above, two have two or more sulfur atoms.
Each structure is followed by: Mtb growth | Mtb betalactam | RecA splice inh | Arbovirus anti | YopH PTP inh
> CCCCN(CC)C(=O)C1CCCN(S(=O)(=O)c2cccc3nsnc23)C1 (stereo unspecified)
→ x | -7 | -1.1 | x | x
> CC(=O)NCCn1c(SCC(=O)NCCc2ccc(S(N)(=O)=O)cc2)nc2ccccc2c1=O
→ 4% | -2 | -1.4 | 19 | x

Random excerpt: 4 compounds from above
Each structure is followed by: Mtb growth | Mtb betalactam | RecA splice inh | Arbovirus anti | YopH PTP inh
> CC(=O)NCCn1c(SCC(=O)NCCc2ccc(S(N)(=O)=O)cc2)nc2ccccc2c1=O
→ 4% | -2 | -1.4 | 19 | x
> COc1ccc(N2CCN(C3CCCCC3NS(=O)(=O)c3ccccc3)CC2)cc1 (stereo unspecified)
→ x | -10 | 2.6 | x | x
> Cc1ccc(N2CC(C(=O)NCCc3ccc(S(N)(=O)=O)cc3)CC2=O)cc1 (stereo unspecified)
→ -9% | 2 | 2.9 | 5 | -24
> Cc1cccc(CSc2nnc(-c3ccco3)o2)c1
→ 8% | 0 | 2.5 | -16 | x

Following part:
Each structure is followed by: Mtb growth | Mtb betalactam | RecA splice inh | Arbovirus anti | YopH PTP inh
> Cc1ccc(C)c(N2CCN(S(=O)(=O)c3ccc4c(c3)CCC(=O)N4)CC2)c1
→ -1% | x | 0.9 | 9 | -60
> O=C(COC(=O)C1CC1)Nc1ccccc1Sc1ccccc1
→ 9% | 58 | 1.9 | 2 | -25
> Cc1cc(C)n2nc(SCC(=O)N(C)C)nc2n1
→ -12% | -10 | -0.6 | 3 | -13
> Cc1cccnc1NC(=O)c1ccc(C(=O)c2ccccc2)cc1
→ x | -9 | -1.3 | x | x
> Cc1n[nH]c(C)c1S(=O)(=O)N1CCc2ccccc2C1
→ x | -2 | 1.3 | x | x
> C=CCn1c(CCCOc2ccc(Cl)cc2Cl)nnc1SCC(=O)Nc1nccs1
→ -6% | 12 | 0.7 | 5 | -21
> COc1ccc(-n2nc3c(N4CCC(C(=O)NCc5ccco5)CC4)nnc(C)c3c2C)cc1
→ x | 3 | 2.7 | x | x
> CN(C)c1ccc(S(=O)(=O)N2CCCCC2)cc1NC(=O)COc1ccccc1F
→ -4% | -3 | -0.3 | x | x
> O=C(NCc1cccc(C(F)(F)F)c1)C1CCCN(c2ncccn2)C1 (stereo unspecified)
→ 8% | -3 | -5.7 | -3 | -41
> CCCCOc1ccc(-c2ncc(N)cn2)cc1
→ 3% | 10 | 2.3 | x | x
> CSCc1c(C(=O)Nc2ccc3c(c2)OCO3)oc2ccccc12
→ x | 5 | 10 | x | x
> O=C(Cc1ccc([N+](=O)[O-])cc1)N/N=C/c1cccs1
→ x | 0 | -3.1 | x | x
> COc1ccc(C2N(c3ccc(OC)cc3)C(=S)N3CCCN23)cc1 (stereo unspecified)
→ 9% | 7 | 23 | 8 | -17
> O=C(c1ccccc1)C(Cn1cncn1)C(Sc1ccccc1)c1ccccc1 (stereo unspecified)
→ -18% | 43 | 1.9 | 0 | -14
> COc1ccc(NC(=S)NC(NC(=O)c2cccc(Cl)c2)C(Cl)(Cl)Cl)c([N+](=O)[O-])c1 (stereo unspecified)
→ 9% | 2 | 24 | -19 | -38
> CCCCCCn1c(COc2ccccc2F)nnc1SCC(=O)N1c2ccccc2NC(=O)C1(C)C
→ 17% | u | 12 | -35 | 3
> CCOc1ccc2[nH]c(=O)c(CN(CCO)C(=O)CC)cc2c1
→ -10% | -15 | 1.7 | 0 | -42
> CCCN1C2CCCC1CC(NC(=O)c1cccc(OC)c1)C2 (stereo unspecified)
→ x | 3 | -0.1 | x | x
> Cc1cc(C)c(NC(=O)CS)c(Cl)c1
→ 2% | -1 | -3.5 | 4 | x
> Cc1oc(-c2cccs2)nc1CS(=O)CC(=O)NCCCOC(C)C (stereo unspecified)
→ -1% | -8 | 7.7 | 8 | 1
> CC1CCCCC1NC(=O)CSc1nncn1N (stereo unspecified)
→ -1% | 0 | 4.0 | 0 | x
> COC(=O)C1=CN(Cc2ccccc2)C=C(C(=O)OC)C1c1ccc(O)c(OC)c1
→ x | -3 | 2.0 | x | x
> CN(C)C(CN=C1NS(=O)(=O)c2ccccc21)c1ccco1 (stereo unspecified)
→ 2% | -8 | -1.3 | 1 | x
> CC(C)CC1(C)NC(=O)N(CC(=O)Nc2cccc(S(=O)(=O)N(C)c3ccccc3)c2)C1=O (stereo unspecified)
→ -1% | -10 | 2.3 | -3 | x
> COc1ccc(Cc2nnc(SCC(=O)NCC3CCCO3)o2)cc1 (stereo unspecified)
→ 5% | 1 | -1.3 | -3 | -39
> COc1ccccc1OCC(=O)Nc1cccc(C(=O)N2CCOCC2)c1
→ -10% | 0 | 0.1 | 1 | 34
> Cc1cccc(-c2nnc(SCC(=O)NC3CC3)n2C)c1
→ x | 0 | -0.1 | x | x
> COc1ccc(OCCCn2c(=O)oc3ccccc32)cc1
→ 9% | 44 | 2.9 | 1 | -30
> O=C(NNC(=S)NC1CC2CCC1C2)c1ccc(Cl)cc1 (stereo unspecified)
→ 0% | 2 | 5.1 | x | x
> COc1ccc(-c2cc(O)cc(O)c2)cc1
→ 8.8µM* | 99 | -7.1 | -1 | -23
> CC1(C)SC(=S)N(Cc2ccc3c(c2)OCO3)C1N(O)C(=O)NC1CCCCC1 (stereo unspecified)
→ 7% | -8 | 12 | -1 | -2
> Cc1ccc(CCN2CC(C(=O)NCc3ccco3)CC2=O)cc1 (stereo unspecified)
→ -4% | -12 | 2.0 | 1 | -18
> CCOc1ccc(-n2nnnc2SCC(=O)c2ccccc2)cc1
→ -8% | -5 | -0.3 | -9 | -42
> O=S1(=O)[C@H]2C[C@@H]3C=C[C@@]2(CN1Cc1cccc(C(F)(F)F)c1)O3
→ x | 10 | -0.8 | x | x
> Cc1cccc(NC(=S)NCC23C=CC(O2)C2C(=O)N(c4ccc(Cl)cc4)C(=O)C23)c1 (stereo unspecified)
→ -2% | 7 | 4.1 | 1 | -28
> CC(=O)c1cc(C#N)c(NCc2ccccc2)nc1C
→ 7% | -5 | 3.1 | 2 | x
> CCC(C(=O)Nc1ncn[nH]1)(C(F)(F)F)C(F)(F)F
→ -7% | -6 | x | 0 | -1
> CC1(C)COC(c2cc([N+](=O)[O-])ccc2Cl)=N1
→ 1% | -5 | 1.0 | 4 | -7
